Assay outcomes deposited in PubChem by PCMD.
Biofilm kill mix – mixtures killing C. albicans biofilm. C. albicans biofilm persisters + clotrimazole, fluorescence viability; primary screen in compound mixtures of four per well. inhibition, % at 7.6 µM. 0.02% of 120,000 active;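 active = inhibition above 30.3% in the primary screen of four-compound pools, then above 30% when the compound was retested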;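 also: compounds exposed to preformed 24 h biofilms for 48 h; the number belongs to the whole pool; some results filed as inactive read as strong as hits; inactives centre near 12; 0% = biofilm with clotrimazole alone and 100% = kill control; retested singly at about 60 µM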
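Probe or stimulus – Clotrimazole 50 µg/mL co-treatment · System – C. albicans biofilms · Schedule – 24 h biofilm formation, then 48 h compound exposure, 37 °C · Evaluation – percent inhibition of biofilm viability · Technique – 2-h Alamar Blue fluorescence, 535/590 nm excitation/emission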
* marks the source's active call; other numbers are inactive results.

SMILES | Biofilm kill mix
O=C(Cn1nnc2ccccc21)NNC(=O)c1ccccc1 | 14
O=C(NCc1ccc2c(c1)OCO2)c1ccc(Cl)c(S(=O)(=O)NCc2ccccc2)c1 | 18
COc1cc(OC)c(OC)cc1CN1CCN(Cc2cccn2C)CC1 | 16
C/C(=N\Nc1nc2ccccc2[nH]1)c1ccc2c(c1)OCCO2 | 14
CC1CN(C(=O)COC(=O)c2cc([N+](=O)[O-])ccc2Cl)CC(C)O1 (stereo not given) | 14
OCC1(Cc2ccccc2C(F)(F)F)CCN(Cc2ccncc2)CC1 | -5
CSc1nc(-c2ccc(Cl)cc2)nn1C(=O)c1ccccc1 | 17
CCc1ccc(CN(C)Cc2nc(Cc3ccc(OC)c(OC)c3)no2)nc1 | 5
CNc1cc(F)nc(F)n1 | 11
CN(CCN1CCOCC1)Cc1nc(-c2ccc(Cl)cc2)no1 | 27
O=C(CNc1cccc(S(=O)(=O)N2CCOCC2)c1)N1CCc2ccccc21 | 17
O=C(Cn1ccc([N+](=O)[O-])n1)NCc1nc2ccccc2[nH]1 | -2
Cc1ccc(CN2C(=O)N/C(=C\c3cccn3-c3cccc(C(=O)O)c3)C2=O)cc1 | 9
CCOc1ccc(CN2CCN(C/C=C/c3ccc(OC)cc3)CC2CCO)cc1 (stereo not given) | 31
Cc1cccc(C(=O)NC(=S)Nc2ccccc2C(=O)O)c1 | 9
CCN(CC)C(=O)NC1CCCCCCC1 | -19
C/C(CC(=O)NC12CC3CC(CC(C3)C1)C2)=N\NC(=O)c1cnccn1 | 11
CCOC(=O)Cc1c(C)nc(N)[nH]c1=O | 19
Cn1c(SCC(=O)Nc2cc(S(=O)(=O)N3CCOCC3)ccc2N2CCOCC2)nnc1-c1ccncc1 | 46
COC(=O)CNC(=O)COC(=O)/C=C/c1ccccc1[N+](=O)[O-] | 4
CN(/N=C/c1ccccc1Cl)c1ncc(Cl)cc1C(F)(F)F | 5
CC(=O)Nc1ccc(NC(=O)C23CC4CC(C2)CC(n2cnc(Br)n2)(C4)C3)cc1 | 3
CC(=C/C(=O)O)/C(=C/c1ccccc1)C(=O)O | 11
COc1cc(CC(=O)OCC(=O)Nc2ccc3c(c2)OCO3)cc(OC)c1OC | -7
Cc1nn(C(C)c2n[nH]c(=S)n2-c2ccc(F)cc2)c(C)c1[N+](=O)[O-] (stereo not given) | 7
CC(OC(=O)C1CCC(=O)N1)C(=O)Nc1cc(Cl)cc(Cl)c1 (stereo not given) | 24
NC(=NCCc1c[nH]c2ccccc12)NC(=O)c1ccc(F)cc1 | 16
O=C(NCc1ccc2c(c1)OCO2)C1CC(=O)N(c2ccc(F)cc2)C1 (stereo not given) | 3
Cc1nn(C)c(C)c1S(=O)(=O)N1CCC(CO)(Cc2ccc(Cl)cc2)CC1 | 9
Cc1ccc(C(=O)N(C)CC(=O)Nc2ccc(F)c(F)c2F)o1 | 5
O=C(COc1ccc([N+](=O)[O-])cc1)N/N=C/c1cc([N+](=O)[O-])ccc1N1CCOCC1 | 9
COc1ccc(Br)cc1/C=N/NC(=O)c1cc(Br)ccc1O | 8
Cn1nccc1C(=O)N/N=C/c1cccnc1 | 6
COc1ccc(-n2nc(C)cc2N)cc1 | -3
CN(C)[C@@H]1C(=O)C(C(=O)NCN2CCCC2)=C(O)[C@@]2(O)C(=O)C3=C(O)c4c(O)cccc4[C@@](C)(O)C3CC12 (stereo not given in full) | 6
Cc1cccc(CSc2ccc(-c3ccco3)nn2)c1 | 11
O=C(NCCSc1c[nH]c2ccccc12)c1ccc2c(c1)OCO2 | 23
O=C(O)c1cc(/C=C/c2ccc(N3CCOCC3)c([N+](=O)[O-])c2)nc2ccccc12 | 19
O=C(N/C(=C\c1ccc(-c2ccccc2)o1)C(=O)N1CCOCC1)c1ccccc1 | 31
Fc1cccc(Cl)c1CSc1ccc2nnc(-c3ccccn3)n2n1 | 10
COc1ccc(-c2noc(-c3ccc(Br)o3)n2)cc1 | 19
COC(=O)c1ccccc1NC(=O)c1cccc(NC(=O)C(C)C)c1 | 14
Cc1ccn2c(-c3n[nH]c(=S)n3Cc3ccccc3)c(C)nc2c1 | 20
COc1cccc(-c2cc(C(=O)NCc3cccs3)no2)c1 | 14
COc1cc(C(=O)OCC(=O)Nc2cc(C)on2)c([N+](=O)[O-])cc1OC | 14
O=C(CCC1CCCN(C(=O)C2(c3ccccc3)CC2)C1)N1CCN(c2ccccn2)CC1 (stereo not given) | 23
Cc1ccc([N+](=O)[O-])c(OCC(O)CNC(C)(C)C)c1 (stereo not given) | 16
COc1ccc(NC(=O)C(c2ccc(OC)cc2)N(C)C(=O)CC2NC(=O)NC2=O)cc1 (stereo not given) | 14
Cc1cc(N2CCCC2)nc2c(C)cccc12 | 10
CCOC1(/N=C(\C)NS(=O)(=O)c2ccc(Cl)cc2)C(C)=CC(=O)C=C1C | 3

Next results follow:
SMILES | Biofilm kill mix
COCCn1cnc2c(c1=O)c1nc3ccccc3nc1n2/N=C/c1cccc(OC)c1 | 17
O=C(Nc1ccccc1F)Nc1cccc2ccc(O)cc12 | 14
O=C1CCCC(=O)C1C1c2ccccc2CCN1C(=O)CCl (stereo not given) | 18
Cc1nn(Cc2cccc(C(=O)NN)c2)c(C)c1Cl | 6
CC(=O)N1CCc2cc(S(=O)(=O)CCC(=O)N3CCN(c4ccccn4)CC3)ccc21 | 4
CCOCCCNC(=O)c1ccccc1OC1CCN(S(C)(=O)=O)CC1 | -2
Cc1cc(C)n(C(=O)c2cccc(S(=O)(=O)N3CCCCC3)c2)n1 | 20
COc1ccc(C(F)(F)F)cc1N/C=C/c1nnnn1-c1ccc2ccccc2c1 | 10
COc1ccc(CNC(=O)c2ccc(Br)o2)cc1 | 18
C#Cc1cccc(NC(=O)CSc2nnc(-c3ccc(C(F)(F)F)cn3)o2)c1 | 13
COC(=O)CCCC(=O)N1CCCC(CNS(=O)(=O)c2ccc(OC)cc2)C1 (stereo not given) | 4
O=C(COc1ccccc1)NCC(=O)N/N=C/c1ccco1 | 16
O=C(CSc1nc2[nH]ncc2c(=O)n1-c1ccccc1Cl)N1CCCC1 | 15
COc1ccc(NS(=O)(=O)c2ccc3nc(COc4ccc(C#N)cc4)[nH]c3c2)cc1 | -9
CCn1c(-c2ccc(F)cc2)cnc1SCC(=O)N1CCc2ccccc21 | 18
CC(C)(C)OC(=O)NCCCCc1cn(CC(=O)N2CCN(C(=O)OC(C)(C)C)CC2)nn1 | 12
CCC1=C(OC(=O)N(CC)CC)N2C(=O)OC(=NCCc3c[nH]c4ccccc34)[C@]2(Cc2ccccc2)[C@H]2C1=CC[C@H]1C(=O)N(CC)C(=O)[C@H]12 | 15
Cc1n[nH]c(C)c1Sc1ccccc1N | 26
Brc1ccc(N=Cc2ccccn2)cc1 | 8
CCOC(=O)c1[nH]c(C)c(C(=O)OCC(=O)N2CC(=O)Nc3ccccc32)c1C | 1
N#Cc1ccc(CSc2nnc3ccccn23)cc1 | 12
CC(=O)N(c1cccc(Cl)c1)c1nc(C)cc(C)c1C#N | 18
CCC12CSc3nc(Cl)ccc3N1C(=O)C(=O)N2C (stereo not given) | 28
COc1ccccc1-c1ccc(=O)n(CC(=O)NC2CCc3ccccc32)n1 (stereo not given) | 22
O=S(=O)(c1ccccc1C(F)(F)F)N1C=CC(C(F)(F)F)=NCC1 | 18
COc1ccc(-n2c(SCC(=O)Nc3nc(C)cs3)nnc2-c2ccoc2C)cc1 | -2
CN(C)S(=O)(=O)c1cccc(C(=O)OCC(=O)c2c(N)n(C)c(=O)n(C)c2=O)c1 | 9
CC1Cc2ccccc2N1C(=O)/C=C/c1cccc(F)c1 (stereo not given) | 18
Cc1cc(NC(=O)Cn2nc(C)c([N+](=O)[O-])c2C)no1 | 18
O=[N+]([O-])c1ccc(Oc2cccc(C(F)(F)F)c2)nc1 | 21
C#CCOCCOCCOCCNc1nc(N2CCOCC2)nc(N2CCN(C(=O)[C@H](Cc3cc4ccccc4[nH]3)n3cc([C@@H](N)C(C)CC)nn3)CC2)n1 (stereo not given in full) | 18
COC(=O)c1ccc(C)c(NC(=O)CN(c2ccccc2)S(=O)(=O)N(C)C)c1 | 8
CS(=O)(=O)N(CC(=O)Nc1ccccc1-c1ccccc1)c1ccccc1 | 6
COc1cccc2cc(C(=O)NNC(=O)c3ccc(Br)cc3)c(=O)oc12 | 14
CCOC(=O)CC1Sc2ccccc2NC1=S (stereo not given) | 10
CCO[C@H]1OC(C(=O)N2CCN(C)CC2)=C[C@@H](C)[C@@H]1CCCO | 24
CC1(C)Cc2c(sc3nc4n(-c5ccccc5)c(=O)c(CCC(=O)O)nn4c(=O)c23)CO1 | 26
N#Cc1c(Nc2ccccc2)sc(C(=O)C2CC2)c1N | 8
CCCOc1c(Cl)cc(C(=O)NC)cc1OC | 11
CCCCNC(=S)N(C)/N=C/c1ccc2c(c1)OCO2 | 5
CCOC(=O)c1ccc(NC(=S)N(CCN(C)C)Cc2cccs2)cc1 | 11
COc1ccc(-c2[nH]ncc2C2N=C(N)Nc3nc4ccccc4n32)cc1 (stereo not given) | 5
Nc1ccccc1SC1CC(=O)N(c2ccc3c(c2)OCO3)C1=O (stereo not given) | 3
Cc1ccc(NC(=O)CC2SCCNC2=O)cc1[N+](=O)[O-] (stereo not given) | 16
CCCCc1nnc(NC(=O)C(C)Sc2nc(O)c(Cc3ccccc3)c(=O)[nH]2)s1 (stereo not given) | 8
O=C1CCC/C1=C\Nc1ccc(Cl)c([N+](=O)[O-])c1 | 6
COC(=O)c1cccc(NC(=S)N2CCN(c3ccccc3F)CC2)c1 | 5
Cc1ccccc1/C=N/NC(=O)CSc1nc2ccccc2o1 | 9
S=C(N/N=C/c1ccc2c(c1)OCO2)NC1CC2CCC1C2 (stereo not given) | 4
Cc1ccn(CCC(=O)N2CCCC(CCC(=O)N3CCN(c4ccccn4)CC3)C2)n1 (stereo not given) | 11

The results go on:
SMILES | Biofilm kill mix
C=CCn1c(C(CC)CC(C)(C)O)n[nH]c1=S (stereo not given) | 2
Nc1nc(CCl)nc(Nc2ccccc2)n1 | 15
O=C(c1cc(-c2cccs2)nc2ccccc12)N1CCN(c2ccccc2)CC1 | 11
CCOC(=O)NNC(=O)C12CC3CC(CC(C3)C1)C2 | 12
COc1ccccc1NC(=S)N1CCCc2ccccc21 | 12
CC1CN(C(=S)SCCN2C(=O)CCC2=O)CC(C)O1 (stereo not given) | 12
CCCCn1c(N)c(N(CC)C(=O)CCc2ccccc2)c(=O)[nH]c1=O | -14
N/C(=N\OC(=O)CN1C(=O)c2ccccc2C1=O)c1ccc(Br)cc1 | -22
COc1cc(CNCCNC(=O)c2nonc2N)ccc1OCc1ccc(Cl)cc1 | 24
Cc1cc(-c2nnc(CCC(=O)N(C)CCc3ccccc3)o2)no1 | 2
CCN(C(=O)COC(=O)c1cc(S(=O)(=O)N2CCOCC2)c(Cl)cc1Cl)C1CCS(=O)(=O)C1 (stereo not given) | 11
O=C(/C=C/c1ccco1)Oc1cc(Br)cc(/C=N/NC(=O)c2ccccc2O)c1 | 7
CCCCC(=O)OCC(=O)c1[nH]c(C)c(C(C)=O)c1C | 12
O=C(NCc1ccncc1)c1cc(C(=O)C2CCCCC2)c[nH]1 | 10
CN(Cc1cn(-c2ccccc2)nc1-c1ccc(Cl)cc1)C(=O)CCC(=O)O | 15
C/C(=N\NC(=S)NC1CCCCC1)c1ccccc1 | 11
Cc1cccc(N2CCN(C(=O)CC(NC(=O)c3ccccc3)c3ccccc3)CC2C)c1 (stereo not given) | 14
O=C(/C=C/c1ccc2c(c1)OCO2)N1CCN(c2n[nH]c(=O)[nH]c2=O)CC1 | 12
O=C(NN1C(=O)c2ccccc2NC1c1ccc([N+](=O)[O-])o1)c1ccc([N+](=O)[O-])cc1 (stereo not given) | 13
O=C(Nc1ccc2c(c1)CCC2)c1cccc(F)c1 | -6
S=c1[nH]nc(-c2ccccn2)n1/N=C/c1ccccc1 | -3
Cc1ccc(C(OCCN(C)C)c2cccc(C(F)(F)F)c2)cc1 (stereo not given) | 9
CN(C)c1ccc(NC(=O)c2ccc([N+](=O)[O-])cc2Cl)cc1 | 5
CC1CC(C)(C)NC(=S)N1CCC(=O)N1CCN(c2ccccc2)CC1 (stereo not given) | 24

This is a subset (hit frequency here may not be typical).
